ClpP mod – qHTS Assay for Activators of ClpP; purified B. subtilis ClpP, FRET peptide cleavage, 20 min; Potency, µM (top dose mostly 57.5 µM), inactives show at the top dose activity change, negative = active; AID 651965, 2013; 340,000 tested, 1.9% active; ATP-dependent Clp protease proteolytic subunit (Bacillus subtilis (strain 168)), P80244; active = well fitted falling curve with a large enough effect; inconclusive = small, poorly fitted or top-dose-only effect; inactive = no such curve, though single readings can be large or run the other way; also: potency is read from the fitted curve at half-maximal effect; the source files actives as falling curves though it sought activators and does not explain the sign; nearly all actives have a fitted effect of over 65% in size; many hits overshoot -100%
Target sequence (P80244 whole entry, looked up): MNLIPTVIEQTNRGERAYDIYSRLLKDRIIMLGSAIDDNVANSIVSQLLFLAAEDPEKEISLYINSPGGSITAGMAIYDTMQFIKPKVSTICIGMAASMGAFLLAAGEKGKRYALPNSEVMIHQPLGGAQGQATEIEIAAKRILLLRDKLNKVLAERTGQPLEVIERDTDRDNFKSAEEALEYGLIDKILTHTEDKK
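FRET quenching reversal measured ClpP activation: 10 microg/mL B. subtilis ClpP at pH 8 with the FRET-FV decapeptide, read at 430 nm after 320 nm excitation. The 20-min minus 0-min signal was scaled between DMSO/no-enzyme wells and ADEP (5.8 microM final).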
gsp antagonist – qHTS for Antagonists of gsp, the Etiologic Mutation Responsible for Fibrous Dysplasia/McCune-Albright Syndrome: qHTS | gsp-mutant cells, cAMP HTRF, 30 min; control for the full effect not named in the record | Potency, µM (top dose mostly 76.9 µM), without a hit: at the highest dose activity change, negative = inhibition, most hits filed as inhibitors | 340,000 tested, 0.4% active | AID 624288, 2012; active = falling curve of any shape with a large fitted effect; inconclusive = falling curve, mostly with a smaller effect; inactive = flat or rising curve; cell line not stated here;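 also: intracellular cAMP measured with PDE inhibitor Ro 20-1724 present during compound exposure; potency is read from the fitted curve at half-maximal effect; % is scaled to controls: 0 for no effect and ±100 for the full control effect; nearly all actives have a fitted effect of over 65% in size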
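Measurement of cellular cAMP by homogeneous time-resolved fluorescence following a 30 min compound exposure at 37C. The PDE inhibitor […] was present throughout; the assay buffer was DPBS with 0.05% BSA and 0.005% Tween 20.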
Sfp PPTase inh – qHTS Assay for Inhibitors of Bacillus subtilis Sfp phosphopantetheinyl transferase (PPTase); 4'-phosphopantetheinyl transferase ffp (Bacillus subtilis), Q9F4F7; Biochemical Sfp PPTase activity, qHTS; Potency, µM, for the others: max response, negative = inhibition, actives largely listed as inhibitors; 310,000 tested, 3.5% active; AID 1490, 2009; active = well fitted inhibition curve with a large enough effect; inconclusive = small, poorly fitted or top-dose-only effect, or another doubt; inactive = no such curve, though single readings can be large or run the other way;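 also: the enzyme is Sfp with the accession as filed and its product quenches rhodamine fluorescence; potency is read from the fitted curve at half-maximal effect; 0% = enzyme reaction without inhibitor and -100% = no enzyme wells; top concentration of the series not given in the record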
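Reaction rates are the 30-min fluorescence difference (ex 525, em 598 nm) in wells containing 15 nM Sfp, 5 uM rhodamine-CoA and 12.5 uM BHQ-2-YbbR at pH 7.6 with 10 mM MgCl2.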
D2 ag – Beta-Arrestin HTS for Positive Allosteric Modulators of the Human D2 Dopamine Receptor: Agonists; D(2) dopamine receptor (Homo sapiens), P14416; DiscoveRx PathHunter D2 beta-arrestin, luminescence, 90 min; 100% = 57 uM dopamine signal; activation, % (test concentration not listed); 360,000 tested, 0.084% active; AID 624465, 2012; in the data active = activation above about 40%; inconclusive = about 15% to 40%; inactive = below about 15%; also: compound concentration not given in the record; the text of the record calls up to 30% inactive
Target sequence (P14416 whole entry, looked up): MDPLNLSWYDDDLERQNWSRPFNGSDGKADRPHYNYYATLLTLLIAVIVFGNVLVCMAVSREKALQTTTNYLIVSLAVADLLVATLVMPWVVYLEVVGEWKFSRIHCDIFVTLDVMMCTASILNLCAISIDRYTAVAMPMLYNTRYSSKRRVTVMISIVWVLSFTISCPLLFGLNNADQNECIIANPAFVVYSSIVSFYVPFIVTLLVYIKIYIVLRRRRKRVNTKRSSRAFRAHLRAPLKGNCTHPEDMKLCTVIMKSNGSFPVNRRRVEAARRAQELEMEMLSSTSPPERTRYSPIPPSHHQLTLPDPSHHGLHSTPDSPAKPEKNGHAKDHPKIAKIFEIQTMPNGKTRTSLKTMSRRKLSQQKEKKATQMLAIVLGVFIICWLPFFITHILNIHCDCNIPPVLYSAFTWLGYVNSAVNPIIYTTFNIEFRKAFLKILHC
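DiscoveRx PathHunter D2 beta-arrestin cells (2,100/well) attached overnight, then compound-stimulated 90 min at 37 C in HBSS/10 mM HEPES/0.1% Tween-20 buffer; beta-galactosidase complementation read by luminescence after 1 h at ambient temperature. Dopamine 57 uM final (EC100) as control.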
gsp agonist – qHTS for Agonist of gsp, the Etiologic Mutation Responsible for Fibrous Dysplasia/McCune-Albright Syndrome: qHTS; AID 624287, 2012; gsp mutant cells, cAMP HTRF, 30 min; control for the full effect not named in the record; 340,000 tested, 0.13% active; Potency, µM (series often up to 76.9 µM), inactives show at the highest dose activation (cAMP increase), hits mostly activators; active = well fitted activation curve with a large enough effect; inconclusive = small, poorly fitted or top-dose-only effect, or another doubt; inactive = no such curve, though single readings can be large or run the other way; cell line not stated here;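 also: phosphodiesterase inhibitor Ro 20-1724 added with compounds to block cAMP breakdown; potency is read from the fitted curve at half-maximal effect; nearly all actives have a fitted effect of over 60% in size; about a fifth of the inactives were tested at one dose only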
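Cells stably selected in G418 were plated at 2000/well, grown 16-24 hr, then given compounds in DMSO with the PDE inhibitor […] (300 uM solution added) for 30 min at 37C; cAMP was read by HTRF.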
PINK1 modulator – A Quantitative High throughput Screen to Identify Chemical Modulators of PINK1 Expression. PINK1 immunofluorescence, high-content cytometry, 24 h. Potency, µM (titrated, usually from 76.6 µM), for the others: at the top dose activation (PINK1 increase), usual class: activators. 410,000 tested, 0.2% active. AID 624263, 2012; active = well fitted activation curve with a large enough effect; inconclusive = small, poorly fitted or top-dose-only effect; inactive = flat fitted curve, though single readings scatter; cell line not stated here;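 also: potency is read from the fitted curve at half-maximal effect; % of control where 0% means no effect; nearly all actives have a fitted effect of over 65% in size; a mitochondrial uncoupler was the plate control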
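Fluorescence from anti-PINK1 antibody, together with nuclear and cell stains, was scanned on a laser-scanning cytometer. Before staining, stable-line cells were incubated 24 hours with compounds at 5 concentrations; primary antibody 12 h at 10 degrees C.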
Menin-MLL FL inh – qHTS Assay for Inhibitors Targeting the Menin-MLL Interaction in MLL Related Leukemias: Competition With Fluorescein Labeled MLL-derived Peptide. 290,000 tested, under 10 active. FP activity change, % at 61.4 µM. Fluorescence polarization, fluorescein-MLL peptide displacement from menin. AID 1766, 2009; inconclusive = falling polarisation curve, or a change in total fluorescence; inactive = total fluorescence flat and polarisation flat or rising; no compound was filed as active; the % refers to the polarisation; negative = inhibition;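 also: % of control where 0% means no effect; inhibitors lower the polarisation; unlabelled MLL peptide was the positive control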
* = called active by the depositor; ? = inconclusive; / = no result given; & = joins results of further samples; [ ] = remark or other dose. Rows were taken by chance (roughly 5.1% active in at least one column).

SMILES	ClpP mod	gsp antagonist	Sfp PPTase inh	D2 ag	gsp agonist	PINK1 modulator	Menin-MLL FL inh
COc1ccccc1NC(=O)C(C)OC(=O)c1nc2nc(C)cc(C)n2n1 (stereo not drawn)	-0.8%	7%	/	-3.5	-63%[inhibitor]	-0.1%	/
CCOC(=O)c1c(NC(=O)c2ccc(Cl)s2)sc(C)c1C	-2.5%	-3%	13%	-2.2	1%	1.7%	-2.3
Cc1ccc(S(=O)(=O)N(C)C)cc1NC(=O)CCc1c[nH]c2ccccc12	/	/	17%	-3.7	3%[15.4 µM]	-1.6%	0.6
CCC(NC(=O)C1CCCC1)c1ccc(C)cc1 (stereo not drawn)	-0.3%	-13%	12%	1.0	-4%	3.7%	-2.2
CCCCn1c(N)c(N(CCOC)C(=O)c2cccc(S(=O)(=O)N3CCCCC3)c2)c(=O)[nH]c1=O	/	-2%	/	3.7	-7%[15.4 µM]	2.4%	/
O=C(Nc1nnc2n1CCS2)c1ccc(Br)o1	-0.6%	5%	56µM*	-14	23%	1.1%	-1.7
Cc1cccc(Oc2ccc(NC(=O)c3ccccc3C(=O)O)cc2)c1	1.6%	2%	11%	-5.3	0%	-0.4%	3.7
Cc1ccc(C)c(NC(=O)c2ccccc2O)c1	-30%	?	3%	-3.0	8%	16µM*	3.9
CC1Cc2ccccc2N1CC(=O)Nc1ccc(S(=O)(=O)N(C)C)cc1 (stereo not drawn)	1.2%	1%	-29%	-4.2	9%	0.1%	-21
COc1ccc(N2CCN(C3CCCN(Cc4cccc(OC)c4)C3)CC2)cc1 (stereo not drawn)	/	0%	14%	3.1	-26%	0.5%	8.0
COC(=O)Cc1[nH]c(=O)[nH]c1C(=O)OC	/	-1%	14%	0.7	-18%[15.4 µM]	1.6%	0.9
CN(C)CCNC(NC(=O)c1cccs1)C(Cl)(Cl)Cl (stereo not drawn)	-1.9%	7%	-14%	-5.0	?	1.6%	-0.7
CCN(CC(=O)Nc1ccccc1C(F)(F)F)C(=O)c1ccccc1Sc1ccccc1C#N	0.8%	-10%	/	-1.5	?	0.9%	/
O=C(Nc1ccc(Cl)cc1)N1N=CCC1c1ccccc1 (stereo not drawn)	/	6%	-1%	-1.0	-4%[15.4 µM]	0.5%	3.9
COc1ccc(NC(=O)CCN2CCCC2)c(OC)c1	-2.4%	17%	16%	0.3	-14%	-0.7%	3.3
CCN1CCN(c2nc(C)c3c(n2)CC(C)CC3=O)CC1 (stereo not drawn)	-3.1%	15%	22%	-3.7	6%[15.4 µM]	1.1%	-0.5
CC(=O)OCC(=O)C1(O)CCC2C3CC(F)C4=CC(=O)CCC4(C)C3C(O)CC21C (stereo not drawn)	/	1%	/	4.1	-34%	-1.2%	/
CC1CCCC(C)N1CC(O)COC1CCC(C(C)(C)C)CC1 (stereo not drawn)	-2.8%	5%	-4%	-5.0	2%	0.3%	-1.5
COc1ccc(C(CNC(=O)c2ccc(Cl)c(S(=O)(=O)N3CCCC3)c2)N2CCCC2)cc1 (stereo not drawn)	-2.3%	5%	/	3.6	8%	1.2%	/
CCCn1c(NC(=O)CN2C(=O)NC3(CCCC3)C2=O)nc2ccccc21	1.5%	-1%	/	-9.1	-1%[15.4 µM]	0.0%	/
COc1ccc([C@H]2CC(=O)C=C(c3ccc(C(F)(F)F)c(C(F)(F)F)c3)C2)cc1OC	2.8%	6%	/	1.0	/	3.9%	/
CSCC(C)N1CCC(Oc2cccc(C(=O)NCc3ccccn3)c2)CC1 (stereo not drawn)	-0.6%	9%	8%	-1.1	-4%	-0.9%	?
CC(Sc1nnnn1-c1cccc(F)c1)C(=O)NC1CCCC1 (stereo not drawn)	0.6%	-5%	/	0.4	?	0.2%	/
CCOC(=O)C1CCN(Cc2ccc(F)c(F)c2)CC1	-0.1%	11%	-3%	-0.2	19%	4.5%[38.3 µM]	1.3
COc1ccccc1CNC(=O)CCc1nc2ccccc2c(=O)[nH]1	-1.8%	-7%	6%	-4.4	14%	1.7%	1.6

The results go on.
SMILES	ClpP mod	gsp antagonist	Sfp PPTase inh	D2 ag	gsp agonist	PINK1 modulator	Menin-MLL FL inh
COC(=O)c1ccc(CSCC(=O)Nc2cc(OC)cc(OC)c2)o1	0.1%	22%	7%	-3.3	-19%	-0.6%	-1.8
CC1CCN(S(=O)(=O)c2ccc(C(=O)N3CCOCC3)cc2)CC1	2.3%	9%	6%	2.2	-3%[15.4 µM]	2.9%	-1.2
CN1CCN(S(=O)(=O)c2cccc(C(=O)NCCOc3ccccc3F)c2)CC1	-11%	9%	17%	-1.3	-21%	0.8%	/
O=C(O)c1cc(-c2ccc(Cl)s2)nc2ccccc12	/	-12%	-6%	-3.9	19%[15.4 µM]	2.9%	-3.7
C=CCC(=O)N1CCCC(CNC(=O)c2ccc(-c3ccccc3)cc2)C1 (stereo not drawn)	/	-7%	8%	1.5	-21%[15.4 µM]	-0.7%	-0.3
O=C(NCCOc1ccccc1Cl)C(=O)Nc1ccccc1	1.1%	3%	18%	-4.1	29%	15%	4.1
Cc1ccc(S(=O)(=O)C2(C(=O)N3CCN(c4cc(C)ccc4C)CC3)CC2)cc1	/	-18%	-6%	-1.3	26%[15.4 µM]	3.3%	-1.8
Fc1ccc(/C=N/NC(=S)Nc2cccnc2)cc1	1.7%	-4%	5%	0.3	7%	0.3%	5.6
Cc1cc(C)nc(OC(C(=O)O)C(OCCC(C)C)(c2ccccc2)c2ccccc2)n1 (stereo not drawn)	1.2%	-14%	15%	-5.8	-14%	-0.3%	-0.5
O=C1NN=C(c2ccc(Cl)cc2)CC1c1c[nH]c2ccccc12 (stereo not drawn)	-0.6%	3%	-2%	-3.6	-20%	-1.2%	-0.8
CCCCn1c(NC(=O)c2ccco2)c(S(=O)(=O)c2ccc(C)cc2)c2nc3ccccc3nc21	/	4%	?	-1.8	27%[15.4 µM]	0.7%	?
O=C(CCN1C(=O)/C(=C/c2ccc3c(c2)OCO3)SC1=S)Nc1ccc(C(=O)O)cc1	/	0%	-7%	-1.3	20%	3.3%	7.9
COc1ccc(NC(=O)CCC(=O)N(Cc2ccc(OC)c(OC)c2)c2nccs2)cc1	-2.4%	-6%	3%	0.6	6%	-0.8%	3.5
COc1ccc(N(Cc2nnc3n2CCCCC3)C(=O)Nc2ccccc2)cc1	-13%	8%	-5%	-3.8	-5%[15.4 µM]	-0.4%	4.6
Cc1ccc(CNS(=O)(=O)c2c(C(=O)N3CCCCCC3)c(C)n(C)c2C)cc1	0.5%	-10%	9%	-3.2	?	0.3%	1.9
Cn1c(=O)[nH]c(=O)c2c1nc(N1CCCCC1)n2CC(O)COc1ccccc1 (stereo not drawn)	-3.3%	3%	7%	-6.9	-26%	1.6%	-0.3
CC1CCCN(c2nc3c(c(=O)n(C)c(=O)n3C)n2Cc2ccccc2)C1 (stereo not drawn)	-4.9%	-12%	3%	-1.3	-16%	-3.9%	2.7
Cc1ccccc1-c1cc2nc(OCC3CCCO3)n(C)c(=O)c2s1 (stereo not drawn)	-8.9%	/	/	0.2	/	2.3%	/
C=CC(=O)NC(C)(C)Cc1ccccc1	-4.8%	8%	18%	-1.8	4%	2.2%	0.7
CCCn1c(C(C)NC(=O)c2ccccc2)n[nH]c1=S (stereo not drawn)	-1.7%	8%	-6%	-16	-9%[15.4 µM]	-0.7%	-0.2
CCOc1ncccc1C(=O)NCc1ccccc1F	-0.2%	-11%	15%	-3.5	21%[15.4 µM]	-1.0%	-4.7
CCc1ccc(OCC(=O)N/N=C(\C)c2ccc(-n3ccnc3)cc2)cc1	0.8%	-17%	1%	-5.3	1%	0.1%	1.6
O=C(NCCCN1CCOCC1)c1ccc(S(=O)(=O)N2CCOCC2)cc1	-0.6%	2%	7%	-0.3	-64%[inhibitor]	/	1.4
COc1ccc(CNC(=O)c2ccc(Cn3cc(Cl)cn3)o2)cc1	/	7%	-2%	0.7	?	1.2%	7.1
CCC(=O)Nc1ccc(C(=O)CSc2nnc(CNc3ccc(Cl)cc3)o2)cc1OC	-4.9%	-18%	-22%	-1.7	-50%[inhibitor]	/	0.1

(cont.)
SMILES	ClpP mod	gsp antagonist	Sfp PPTase inh	D2 ag	gsp agonist	PINK1 modulator	Menin-MLL FL inh
Cc1ccc(Cl)cc1-c1cc(C(=O)N2CCN(c3ccncc3)CC2)[nH]n1	1.5%	/	/	-4.0	/	0.8%	/
CCN1CCN(c2ccc(S(=O)(=O)N3CCCCC3)cc2NC(=O)CC(NC(C)=O)c2ccccc2)CC1 (stereo not drawn)	-3.2%	7%	/	-1.3	-39%[inhibitor]	2.0%	/
Cc1coc2cc3oc(=O)c(CCC(=O)NCCN4CCOCC4)c(C)c3cc12	4.7%	-13%	-8%	-2.7	/	1.1%	3.2
O=C(COc1ccc(Cl)cc1)N1CCN(Cc2ccc3c(c2)OCO3)CC1	0.1%	-14%&-8%	4%&-7%&26%	-2.1&-0.7	-32%[15.4 µM]	0.9%&0.7%&-0.8%	0.4
CCCC(C)(C)C(=O)N1CCC1(C)C(=O)NS(=O)(=O)c1ccc(Cl)cc1 (stereo not drawn)	-0.2%	/	/	1.4	/	-0.4%	/
C/C(=N/NC(=O)c1ccc(Cl)s1)c1cccnc1	-1.3%	7%	5%	-5.9	-2%	0.6%	/
COC(=O)N1CCN(CCc2ccccc2)CC1	/	6%	20%	-2.1	6%	0.3%	-3.7
Cc1cccc(C(=O)Nc2ccnc(-c3ccncc3)n2)c1	1.8%	-11%	13%	2.0	1%	-1.0%	-4.3

Assay outcomes as filed in PubChem BioAssay.
